HPGD inh – HPGD (human) dehydrogenase inhibition. P15428. purified HPGD, NADH fluorescence kinetic, PGE2 substrate. Potency, µM, inactives show top-dose activity change, negative = inhibition, most hits filed as inhibitors. hit rate 4.3% among 150,000. AID 894; active = well fitted inhibition curve with a large enough effect (not every such curve was filed as active); inconclusive = small, poorly fitted or top-dose-only effect, or another doubt; inactive = no such curve, though single readings can be large or run the other way;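 further: top concentration of the series not given in the record; plate controls included wells without enzyme; inactives centre near -10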
Target sequence (P15428 whole entry, looked up): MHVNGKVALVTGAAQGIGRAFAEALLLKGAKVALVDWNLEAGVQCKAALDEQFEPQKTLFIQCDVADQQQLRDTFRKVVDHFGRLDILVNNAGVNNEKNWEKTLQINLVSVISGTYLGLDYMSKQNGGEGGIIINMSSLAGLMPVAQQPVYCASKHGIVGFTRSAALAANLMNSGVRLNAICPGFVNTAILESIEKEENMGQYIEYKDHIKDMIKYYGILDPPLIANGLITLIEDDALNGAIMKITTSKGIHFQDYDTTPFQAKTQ
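NADH formation kinetics: reaction with 30 uM PGE2 and 1 mM NAD+ (final), 20 nM enzyme, Tris-HCl pH 8 with Tween 20, after 15 min compound preincubation at room temperature. Fluorescence change, last versus first of five reads.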
Starred values were filed as active, the others as inactive; ? = inconclusive. On the % scale 0 is the no-effect control and ±100 the full control effect; potency means the concentration at half of the fitted maximal effect. Not all compounds are listed, so the mix of outcomes need not match the whole.

HPGD inh,smiles
-8.7%,CC1CCC(NC(=O)N(CCCl)N=O)CC1 (centres undefined)
-4.8%,O=C(NCCC1=CCCCC1)C1CCN(S(=O)(=O)N2CCOCC2)CC1
-6.0%,COc1cccc(C2SCC(=O)N2c2ccc(C)cc2)c1OC (centres undefined)
-6.5%,Cc1ccc(N2CCN(C(=O)c3ccccc3NC(=O)C3CC=CCC3C(=O)O)CC2)cc1 (centres undefined)
?,Cc1cccc2sc(NC(=O)c3cccc(S(=O)(=O)N4CCc5ccccc54)c3)nc12
-13.0%,COc1ccc(C(=O)N/N=C/c2ccc(OC(=O)c3ccccc3)cc2)cc1
?,COc1ccc(/C=C2\CCCC3C2=NC(=S)NC3c2ccc(OC)cc2)cc1 (centres undefined)
-7.1%,CCOc1ccc(C)cc1S(=O)(=O)n1ccnc1
-15.4%,O=C(NCCSc1c(-c2ccccc2)[nH]c2ccccc12)c1cc2ccccc2oc1=O
?,O=C(Nc1c(Cl)cc(Cl)cc1-c1nc2ccccc2s1)c1ccc(Br)o1
?,Cc1cc(C)c2nc(-c3ccccn3)cc(C(=O)Nc3ccc(S(=O)(=O)Nc4cc(C)on4)cc3)c2c1
0.9%,C/C(=N\OCC(=O)N/N=C/c1ccccc1)c1cccs1
3.7%,COC(=O)Cc1cc(=O)n(-c2ccccc2)[nH]1
-25.0%,Cc1cc(C)cc(OCC(=O)OCCN2C(=O)c3ccccc3C2=O)c1
-19.5%,Cc1cccc(C)c1NC1=NC2(CCCCC2)N=C(N)N1
-5.0%,CN(C)Cc1ccc(O)c(CN(C)C)n1
-1.9%,COCCCn1cnc2c(c1=O)c1nc3ccccc3nc1n2-c1ccc(C)cc1
-1.8%,Cc1ccc2nc(SCC(=O)Nc3c(C)n(C)n(-c4ccccc4)c3=O)[nH]c2c1
-6.0%,CCN(CC)CCSc1nc(O)c(-c2ccccc2)c(=O)[nH]1
15.8µM*,Cc1cc(C(=O)NCc2ccco2)cs1
-21.6%,Cc1ccc(S(=O)(=O)/N=C(\N)Nc2nc(C)c3cc(C)ccc3n2)cc1
-17.8%,CCOc1cc(/C=C2/N=C(c3ccc(C(C)(C)C)cc3)OC2=O)cc(Cl)c1OS(C)(=O)=O
-2.9%,O=C(Nc1ccc(S(=O)(=O)Nc2ncccn2)cc1)c1cncc(Br)c1
-8.8%,O=C(O)c1ccc2c(c1)C(=O)N(NC(=O)c1ccccc1)C2=O

Compounds listed so far that have a halogen (four):
HPGD inh,smiles
-8.7%,CC1CCC(NC(=O)N(CCCl)N=O)CC1 (centres undefined)
?,O=C(Nc1c(Cl)cc(Cl)cc1-c1nc2ccccc2s1)c1ccc(Br)o1
-17.8%,CCOc1cc(/C=C2/N=C(c3ccc(C(C)(C)C)cc3)OC2=O)cc(Cl)c1OS(C)(=O)=O
-2.9%,O=C(Nc1ccc(S(=O)(=O)Nc2ncccn2)cc1)c1cncc(Br)c1

Continuation.
HPGD inh,smiles
?,Cc1cc(N2CCCCC2)nc2ccc(NC(=O)CCC(=O)NCCC(C)C)cc12
-1.9%,CN(CCc1ccc(Cl)c(Cl)c1)C[C@@H](O)COc1ccc(NS(C)(=O)=O)cc1
-0.3%,C=CCn1c(SC/C=C/c2ccccc2)nnc1-c1sc(N)nc1C
-23.7%,COC(=O)c1c(NC(=O)CC2SC(N)=NC2=O)sc2c1CCC(C(C)(C)C)C2 (centres undefined)
?,CCN(CC)C(=O)c1sc2nc(-c3ccncc3)[nH]c(=O)c2c1C
-14.3%,CCOc1ccc(OCC)c(NC(=O)CC2Oc3ccc(C)cc3NC2=O)c1 (centres undefined)
-8.3%,OC(CNC1CCCC1)COc1c(F)cc(Br)cc1F (centres undefined)
-13.6%,O=[N+]([O-])c1cc(S(=O)(=O)c2ccc(N3CCCCC3)c([N+](=O)[O-])c2)ccc1N1CCCCC1
?,c1coc(C2Nc3ccccc3-c3nc4ccccc4n32)c1 (centres undefined)
-5.2%,CCCC(=O)N1CCN(c2ccc(NC(=O)C(C)(C)C)cc2)CC1
-7.5%,COc1cccc(-c2cc(C(=O)Nc3c(C)nn(Cc4ccccc4C)c3C)no2)c1
-19.1%,COC(=O)c1c(-c2ccccc2)csc1NC(=O)CSc1ncnc2sc(C)c(C)c12
15.8µM*,NS(=O)(=O)c1cccc2c1c([N+](=O)[O-])cc1nc(O)c(O)nc12
?,CCC(C)OC(=O)C1=C(C)NC2=C(C(=O)C(C(=O)OC)C(C)C2)C1c1ccc(N(C)C)cc1 (centres undefined)
-1.2%,O=C(COc1ccccc1)N(CCc1ccccc1)c1nc(-c2ccc(F)cc2)cs1
-14.7%,Cc1ccc(-n2c(C)cc(/C=N/NC(=O)c3ccncc3)c2C)c(C)c1
-15.9%,Cn1c(=O)n(Cc2ccccc2)c(=O)c2c1nc1n2CCCN1CCc1ccccc1
-6.9%,CCOC(=O)c1c(NC(=O)C2C3CCC(O3)C2C(=O)O)sc(C)c1-c1ccc(C)cc1 (centres undefined)
?,O=C1c2ccccc2C(=O)N1CC(=O)N1c2ccccc2Sc2ccc(C(F)(F)F)cc21
-10.5%,CCCCCCc1nnc(N)s1
-18.4%,CC(C)=C[C@H]1[C@@H](COC(=O)c2cc3c(cc2Cl)OCO3)C1(C)C
-3.2%,CCCn1c(SCC(=O)NC(=O)NCc2ccco2)n[nH]c1=O
-16.5%,COc1cccc(/C=C2\N=C3CCCCCN3C2=O)c1
?,Cc1ccccc1C(=O)Nc1cccc(NC(=O)c2ccc(-c3ccc(Br)cc3)o2)c1
-3.4%,Cc1ccc(C(=O)NC(=S)N2CCN(c3ccc([N+](=O)[O-])cc3)CC2)cc1
?,CC1(C)Cc2nc(N)c(C(=O)NCCO)cc2CO1
-8.0%,Cn1c(N2CCCC2)nc2c1c(=O)n(Cc1ccc(F)cc1)c(=O)n2C
?,Cc1ccc(OCC(=O)Nc2ccc(F)cc2)cc1C
-19.2%,COc1ccc(Cn2c(C)ccc2C)cc1
-11.2%,O=C(O)CSc1nnc(-c2ccc3c(c2)OCO3)o1
-23.6%,CCCCOC(=O)Nc1ccc(N2CCCCC2)cc1
-0.5%,COc1ccc(C(=S)N2CCN(C)CC2)cc1Br
-3.0%,FC(F)(F)COc1nc(N2CCCCC2)nc(N2CCNCC2)n1
-13.2%,C/C(=N/NS(=O)(=O)c1ccc(Br)cc1)c1ccc(NC(=O)c2ccc(C)o2)cc1
-10.4%,CCCCCCCC(=O)OCC(O)CO (centres undefined)
?,CC(=O)Nc1nc2n(n1)C(c1ccc(F)cc1)C=C(c1ccccc1)N2 (centres undefined)
-10.8%,Cc1cc(C)n(-c2ccc(-n3ccnc3)nn2)n1
?,O=C(CCSc1nc(-c2ccc3c(c2)OCO3)cc(C(F)(F)F)n1)NCc1ccccc1
-10.2%,CCc1ccc(OCC(=O)OC2CCS(=O)(=O)C2)cc1 (centres undefined)
-7.1%,C=CCC1(NC(C)c2ccccc2)CCCCC1 (centres undefined)
-5.3%,COc1ccccc1NC(=O)C1CCCCC1
-3.3%,COc1ccccc1NC(=O)c1ccc(-n2cccn2)nc1
-6.6%,c1ccc2c(c1)oc1c(NCc3ccc4c(c3)OCO4)ncnc12
-8.4%,Cc1cccc(NC(=S)NN2CCN(C)CC2)c1C
-5.9%,Cn1nnnc1SCC(=O)NCc1cccc(C(=O)O)c1
-11.4%,O=C(CSc1nc2ccccc2s1)N1c2ccccc2Sc2ccc(C(F)(F)F)cc21
-12.3%,CCOC(=O)CSC1=C(C#N)C(c2ccccc2F)C(C(C)=O)=C(C)N1 (centres undefined)
-5.6%,COc1ccc(N2C(=O)CC(c3ccc(OC(C)C)cc3)C2=O)cc1 (centres undefined)
-7.0%,CC[N+]1(C)CCC(=C2c3ccccc3CC(=O)c3sccc32)CC1 (centres undefined)
?,Cc1nnc(SCC(=O)Nc2nsc(-c3ccc(Cl)cc3)n2)s1
25.1µM*,CC(CCc1ccco1)NC(=O)CSc1cc(=O)n(C)c2ccccc12 (centres undefined)
?,CC(c1ccc(Cl)cc1)n1c(-c2ccc3ccccc3n2)n[nH]c1=S (centres undefined)
-18.2%,CCc1nc2oc3ccccc3c(=O)c2c(=O)n1-c1ccccc1
-18.4%,CCC/C(C)=N/NC(=O)c1ccccc1O
12.6µM*,O=C(c1cnn(-c2ccccc2)c1)c1ccccc1O
-26.9%,CCOC(=O)c1c(NC(=O)CSc2nnc(C)c(=O)[nH]2)sc2c1CCCC2

Continued.
HPGD inh,smiles
-23.9%,C=CCn1c(O)c(C2=c3ccccc3=NC2=O)s/c1=N/c1nccs1
-10.2%,O=C(NC1CCCCC1)N1CCSC1=Nc1ccccc1
-16.9%,S=C(Nc1cccc(Cl)c1)NC1CC2CCCC(C1)N2C1CCCC1 (centres undefined)
-1.4%,CN1CC[C@@]2(CCCN(C(=O)c3cccn3C)C2)C1
2.0%,O=C(CN1CCN(Cc2ccc(F)cc2Cl)C1=O)NCCc1ccc(Cl)cc1
?,COc1ccccc1-c1cc(C(=O)Nc2ccccc2SC)no1
-8.8%,CC1CCCN(C(=O)C23CCC(C)(C(=O)C2)C3(C)C)C1 (centres undefined)
-14.2%,CC/C(=N\NC(=O)CSc1ncccn1)c1ccc2c(c1)OCCO2
?,Cn1c2ccccc2c2c(C(=O)NCC3CCCO3)cn(C3CCCC3)c(=O)c21 (centres undefined)
?,CCN1CCN(CCCNC(=O)c2cc3c(=O)[nH]c4ccccc4c3s2)CC1
-14.3%,COc1cc(CCNc2ccc3nnc(-c4ccccc4)n3n2)cc(OC)c1OC
-24.3%,Cc1ccnc(N=Cc2c(O)ccc3oc4c(c23)CCCC4)c1
-3.8%,N#CCCN/N=C(/Cc1nc2ccccc2[nH]1)c1ccc(Cl)cc1
-3.8%,CC(=O)OCC(=O)[C@@]1(O)CCC2C3CC(C)C4=CC(=O)C=CC4(C)C3C(O)CC21C (some centres undefined)
-4.4%,CCCn1c(C)nc2c(NCCO)nc(C)nc21
-29.3%,Cc1ccc(S(=O)(=O)N/N=C2/CC(c3ccccc3)Oc3ccccc32)cc1[N+](=O)[O-] (centres undefined)
-12.4%,O=C1C(C2=NC(C(=O)O)C3C(=O)N(c4ccc(Cl)cc4)C(=O)C23)=C(O)c2ccccc21 (centres undefined)
-25.0%,Cc1cc(C)c(C#N)c(SCC(=O)Nc2ccccc2C(N)=O)n1
-4.2%,O=C(NCc1cccs1)C1CCCN(S(=O)(=O)c2cnc[nH]2)C1 (centres undefined)
-10.4%,CCOC(=O)C1C(=O)Nc2nc(C)nn2C1c1ccccc1 (centres undefined)
-7.0%,COc1ccc(C(C#N)N2N=C(C)CC2(C)C)cc1 (centres undefined)
-3.4%,COc1ccc(C2CC(C(F)(F)F)n3nc(C(=O)NCCN4CCOCC4)cc3N2)cc1 (centres undefined)
-18.3%,CCNc1oc(COc2cccc(C)c2)nc1C#N
-13.4%,CC(C)(C)c1ccc(C(=O)Nc2cccc3c(=O)[nH][nH]c(=O)c23)cc1
-21.8%,CCCOc1ccc(/C=N/NC(=O)C(C)Sc2ccccn2)cc1OCC (centres undefined)
-14.3%,CCc1noc(C)c1C(=O)N1CCOCC1
-22.0%,c1coc(CNc2nc(-c3ccncc3)cs2)c1
-29.6%,COCCn1nnnc1CN(Cc1cc2cc(OC)c(OC)cc2[nH]c1=O)C1CCCC1
-0.6%,Cc1cccc(CC(=O)Nc2cc(=O)n(C)c(=O)n2C)c1
-5.0%,CC(C)(C)NC(=O)C12CCC(C)(c3nc4ccccc4nc31)C2(C)C (centres undefined)
-26.6%,C/C(=C\C(=O)c1cccnc1)Nc1ccc(C(=O)O)cc1
14.1µM*,CC(NC(=O)/C(C#N)=C/c1cn[nH]c1-c1ccccc1)c1ccccc1 (centres undefined)

Shown as tab-separated lines: part of the list above.
canonical_smiles	HPGD inh
CC(CCc1ccco1)NC(=O)CSc1cc(=O)n(C)c2ccccc12 (centres undefined)	25.1µM*
Cc1cc(C)c2nc(-c3ccccn3)cc(C(=O)Nc3ccc(S(=O)(=O)Nc4cc(C)on4)cc3)c2c1	?

Later entries
HPGD inh,smiles
-7.2%,Brc1ccc2c(c1)C(c1ccc(N3CCOCC3)cc1)=NNC(c1cccs1)=N2
?,S=C(S)OC1CC2CC1C1CCCC21 (centres undefined)
-20.3%,Cc1cc2oc(=O)cc(CN3CCc4ccccc43)c2cc1Cl
-26.6%,COC(=O)c1ccc(C(=O)OC)c(NC(=S)N2CCC(C)CC2)c1
-6.1%,CNC(=O)[C@@]1(Cc2ccccc2)C=C[C@@H](C)N1C(C)=O
-23.4%,O=C(Nc1ccc(N2CCCC2=O)cc1)c1cccc(F)c1
-11.3%,CCOc1cc(NC(=O)C2CC2)c(OCC)cc1NC(=O)c1cccnc1
-19.5%,O=C(COc1ccccc1Cl)NCCC1=CCCCC1
4.47µM*,O=C(Oc1csc(=S)n1C(=O)c1ccccc1)c1ccccc1
-16.6%,CCOC(=O)C1=C(CSc2nc(-c3ccccc3)ccc2C#N)OC(N)=C(C#N)C1c1ccccc1 (centres undefined)
-2.6%,Cc1cc2c(cc1C)NC(=O)CC(C(F)(F)C(F)(F)C(F)(F)F)=N2
-6.9%,COC(=O)c1sc(NC(=O)COc2ccccc2)nc1C
5.01µM*,CCCOc1ccc(OCCSc2nnc(N)s2)cc1
-23.1%,O=c1cc(-c2ccc(F)cc2F)[nH]c2ccc(F)cc12
?,CCOc1ccc(-c2cc(C(=O)NCCCN3CCN(CC)CC3)c3ccccc3n2)cc1
-28.3%,CCn1c(-c2csc(-c3ccc(Cl)cc3)n2)n[nH]c1=S

Among those listed so far, 5 have a tert-butyl group.
HPGD inh,smiles
-17.8%,CCOc1cc(/C=C2/N=C(c3ccc(C(C)(C)C)cc3)OC2=O)cc(Cl)c1OS(C)(=O)=O
-23.7%,COC(=O)c1c(NC(=O)CC2SC(N)=NC2=O)sc2c1CCC(C(C)(C)C)C2 (centres undefined)
-5.2%,CCCC(=O)N1CCN(c2ccc(NC(=O)C(C)(C)C)cc2)CC1
-13.4%,CC(C)(C)c1ccc(C(=O)Nc2cccc3c(=O)[nH][nH]c(=O)c23)cc1
-5.0%,CC(C)(C)NC(=O)C12CCC(C)(c3nc4ccccc4nc31)C2(C)C (centres undefined)

From PubChem BioAssay
